High-throughput results from PubChem BioAssay.
YopH inh: YopH tyrosine phosphatase inhibitors, primary screen, biochemical, fluorescence Ex485/Em525. YopH tyrosine phosphatase [Yersinia enterocolitica]. inhibition, %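 (about 10 µM by stock and volumes)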. 0.16% of 140,000 active. AID 898, 2007;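 active = inhibition of 50% or more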;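 note: controls were vehicle for no effect and minimum signal wells for full effect; inactives centre near -20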
RecA intein inh: Mtb RecA intein splicing inhibitors, primary screen, biochemical, fluorescence, HTS; AID 2221, 2009; cell-free RecA intein splicing; 0.75% of 290,000 active; Protein RecA (Mycobacterium tuberculosis (strain ATCC 25618 / H37Rv)), P9WHJ3; inhibition, %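 (about 9 µM by stock and volumes)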; in the data active = inhibition above about 30%; inconclusive = no clear call, values can overlap the other calls;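 note: 0% = vehicle wells and 100% = reference inhibitor control wells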
Target sequence (P9WHJ3 whole entry, looked up): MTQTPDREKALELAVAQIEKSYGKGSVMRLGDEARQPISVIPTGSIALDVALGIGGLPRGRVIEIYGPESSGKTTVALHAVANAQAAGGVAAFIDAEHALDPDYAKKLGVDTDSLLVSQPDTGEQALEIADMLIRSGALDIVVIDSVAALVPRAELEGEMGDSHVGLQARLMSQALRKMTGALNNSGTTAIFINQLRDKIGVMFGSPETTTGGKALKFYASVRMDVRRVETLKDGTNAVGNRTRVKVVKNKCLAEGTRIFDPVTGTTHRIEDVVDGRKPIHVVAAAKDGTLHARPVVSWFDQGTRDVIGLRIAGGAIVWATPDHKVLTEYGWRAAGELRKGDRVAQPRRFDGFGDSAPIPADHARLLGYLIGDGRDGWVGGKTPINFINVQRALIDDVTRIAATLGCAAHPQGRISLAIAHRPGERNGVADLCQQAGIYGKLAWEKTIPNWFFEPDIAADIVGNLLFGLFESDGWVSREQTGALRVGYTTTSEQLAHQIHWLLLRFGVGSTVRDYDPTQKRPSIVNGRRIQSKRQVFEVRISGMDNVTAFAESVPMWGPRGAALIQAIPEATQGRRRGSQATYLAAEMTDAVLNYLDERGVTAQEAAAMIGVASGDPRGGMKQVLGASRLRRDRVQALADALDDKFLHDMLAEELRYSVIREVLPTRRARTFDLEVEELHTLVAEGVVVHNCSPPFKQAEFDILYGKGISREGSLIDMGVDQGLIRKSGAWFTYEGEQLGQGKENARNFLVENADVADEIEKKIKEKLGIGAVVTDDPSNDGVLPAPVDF
Mtb H37Rv: M. tuberculosis H37Rv growth inhibitors, H37Rv strain (AID 1626); 0.95% of 220,000 active; inhibition, % at 10 µM; hits with a dose series show IC50 in µM; M. tuberculosis H37Rv growth inhibition; higher % means a stronger effect;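 active = confirmed in a dose series; inconclusive = inhibition above 80% but not taken into the dose series; inactive = below 80% or under 30% at every dose of the series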;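 note: bacteria incubated seven days before Alamar blue readout; 0% = bacteria only wells and 100% = bacteria with antibiotic wells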
Mtb betalactam: beta-lactam sensitization of Mtb H37Rv, H37Rv. M. tuberculosis H37Rv growth with meropenem, percent inhibition; hits of this screen are not shown here. inhibition, % at 25 µM. 0.27% of 330,000 active;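 active = about 74% or more and at least 40 points above the plate without the antibiotic, then above 30% in a dose series; inconclusive = first-round hits that could not be retested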;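 note: growth measured after seven days incubation then overnight dye step; 0% = bacteria only wells and 100% = bacteria with antibiotic; twin plates without the antibiotic show which effects depend on it; some results filed as inactive read as strong as hits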
Arbovirus anti: antivirals against arbovirus infection, primary screen, cell-based, full library, 10K replicate subset | arbovirus infection cell-based antiviral screen | inhibition, % at 10 µM | 0.37% of 200,000 active;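 active = inhibition from about 30%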;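 note: bluetongue infection of BSR cells; cell survival read as ATP light after 72 h; 0% = infected wells without compound and 100% = uninfected wells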
Arbovirus anti repeat: recorded beside Arbovirus anti, whose call it bears; inhibition, %; measured here: 10K subset replicate screen; many hits read low in the repeat;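 first of two repeat runs on a subset; 0% = infected and 100% = uninfected wells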
An asterisk follows results filed as active; ? = inconclusive; . = no result given. Not all compounds are listed; the hit share may differ from the screen's.

SMILES	YopH inh	RecA intein inh	Mtb H37Rv	Mtb betalactam	Arbovirus anti	others
N/C(Cc1ccccc1)=N\OC(=O)c1cccc2ccccc12	-5.0	3.6	9.7%	11.4	-4.1
O=C(O)c1cccc(NC(=O)c2cn(-c3ccccc3)nc2-c2cccc(Br)c2)c1	.	10.4	.	9.6	.
CC(C)(CNC(=O)c1ccc(-c2cccc(C(F)(F)F)c2)o1)N1CCOCC1	.	1.5	.	-3.9	.
Cc1ccc(/C=N/N2CCN(Cc3ccccc3)CC2)cc1	.	-0.9	-2.6%	5.2	-0.2
COc1ccccc1NC(=O)CSc1nccn1Cc1ccccc1	.	-1.0	.	-3.6	.
CC(=O)c1c(C)[nH]c(C(=O)Nc2ccc(Cl)c(S(=O)(=O)N(C)C)c2)c1C	.	0.6	-5.3%	8.2	-14.1
O=C(C1=C[C@H](c2csc3ccccc23)C[C@H](OCc2ccc(CO)cc2)O1)N1CCN(Cc2ccc3c(c2)OCO3)CC1	.	-0.1	5.3%	66.8	-11.0
O=C(NC1CC1)c1ccc(CS(=O)c2ccc(Br)cc2)o1 (configuration not stated)	.	-8.5	.	4.5	.
CC(OC(=O)CCC(=O)c1cccs1)C(=O)Nc1ccccc1[N+](=O)[O-] (configuration not stated)	.	1.6	-4.1%	0.6	5.8
O=C(CN1CCCCC1)NC(=O)NCc1ccccc1	-24.1	2.5	-3.7%	-3.1	-5.0
N/C(=N\OC(=O)c1ccc(Cl)cc1Cl)c1ccccc1	17.0	5.1	-3.1%	.	2.9
Cc1ccc(NC(=O)C(C)Sc2nc(=O)cc(N)n2-c2ccccc2)cc1 (configuration not stated)	-24.2	1.3	-2.0%	-3.4	0.1
COc1ccc(OC)c(C(=O)NC(CC(N)=O)c2ccc(NC(C)C)c([N+](=O)[O-])c2)c1 (configuration not stated)	.	0.9	.	-1.1	.
CCOc1cc(C(=S)N2CCCC2)ccc1OC	.	-1.1	.	0.8	.
Cc1ccc(C#N)c(SCc2cc3c(cc2Cl)OCO3)n1	-8.7	-3.3	-7.2%	1.0	-3.0
CC(=O)C(=Cc1cc(C)n(-c2ccccc2)c1C)C(C)=O	.	0.2	-1.1%	-1.8	-0.7
O=C1Cc2cc(S(=O)(=O)N3CCCCC3)ccc2N1	.	1.5	.	-4.3	.
O=C(CN1C(=O)C2CC=C(Cl)CC2C1=O)Nc1ccc(C(=O)O)cc1 (configuration not stated)	-11.6	3.9	-9.0%	4.4	-0.4
CCOC(=O)c1nnn(-c2nonc2-n2cccc2)c1CN1CCC(C(=O)OCC)CC1	1.1	6.8	-3.1%	3.6	6.0
O=C(N/N=C/c1ccoc1)c1cccc([N+](=O)[O-])c1	.	-0.7	.	43.5	.
COC(=O)c1sc2ccccc2c1NC(=O)c1ccc(S(=O)(=O)N2CC(C)CC(C)C2)cc1 (configuration not stated)	-20.2	-1.0	-0.8%	4.6	10.7
CCCNC(=O)C1(CC2CC(c3ccccc3)=NO2)CCN(C(=O)Cc2ccc(F)cc2)CC1 (configuration not stated)	.	1.7	-0.1%	-4.2	.
OC(C#CCN1CCCC1)c1ccccc1 (configuration not stated)	-41.5	2.0	-0.3%	3.3	16.0	Arbovirus anti repeat=2.3
CC(=O)c1ccc(N2CCN(C(=O)c3ccc(Br)cc3)CC2)c(F)c1	-40.3	-0.6	-0.9%	4.7	-4.1
O=C(O)c1ccc2c(=O)n3c(nc2c1)/C(=C/c1ccc(Cl)cc1Cl)CC3	.	1.5	.	0.5	.
Cc1ccc(C(=O)Nc2cccnc2)cc1Cl	.	-1.6	.	0.8	.
O=c1c2c([nH]c3ccccc13)C(=C1CCCC1)CC2	-53.3	-0.3	10.5%	-6.6	-2.1
CCOc1ccc(C(=O)OCC(=O)N2CCCC2)cc1	.	3.3	.	3.5	.
OCCN1CCOCCOc2ccccc2OCCOCC1	.	1.2	.	-13.0	.
O=C(COc1ccc(Cl)cc1)N1CCN(Cc2ccc([N+](=O)[O-])cc2)CC1	.	-2.4	1.4%	11.0	10.1
CCOc1ccccc1-n1c(C)cc(C=O)c1C	.	1.8	9.1%	-2.4	5.3
O=C(CNC(=O)C1COc2ccccc2O1)N/N=C\c1ccc(Br)cc1 (configuration not stated)	.	0.5	.	7.5	.
O=C(CNC(=O)c1ccc2ccccc2c1)NCc1ccc(F)cc1	.	-2.1	.	5.8	.
COC(=O)c1ccc(NC(=O)CN2C(=O)c3ccccc3S2(=O)=O)cc1	.	2.0	.	-3.5	.
CCCN(CCC)c1nc(N)nc(-c2cc(Cl)ccc2OC)n1	-9.1	0.0	33.3%	57.4	-15.2
CCOCCCNS(=O)(=O)c1ccc(NC(=O)CN2C(=O)c3ccccc3C2=O)cc1	.	2.3	0.2%	-5.9	2.4
O=C(CNC(=O)c1ccncc1)N/N=C/c1ccc(O)cc1O	.	-3.0	-13.5%	-3.4	.
CC(=O)N1c2ccc(S(=O)(=O)N3CCC(C(=O)N4CCC(C)CC4)CC3)cc2CC1C (configuration not stated)	.	0.2	.	-5.9	.
CCOc1ccc(C2SCC(=O)N2c2c(C)n(C)n(-c3ccccc3)c2=O)cc1 (configuration not stated)	-7.2	-0.2	-6.4%	-17.1	-3.8
CNC(=S)NNC(=O)c1cccn(Cc2ccc(Cl)cc2Cl)c1=O	-8.2	-2.8	.	7.2	-5.1
CCCC/C(O)=C1\C(=O)CC(C)(C)CC1=Nc1ccccc1OC	17.9	8.2	-3.6%	-4.2	-7.6
O=c1c(Cc2c(F)cccc2Cl)c(O)ccn1C1CCCCCC1	.	0.7	8.5%	15.7	2.3
Cc1ccc(NC(=O)CCS(=O)(=O)c2cccc3nonc23)cc1	.	0.8	73.2%	.	5.2
COc1ccccc1NC(=O)COC(=O)CN1C(=O)C(=O)c2ccccc21	.	-0.6	.	4.9	.
O=C(NC1CCCC1)C(c1cccs1)N(C(=O)c1csnn1)c1ccccc1F (configuration not stated)	.	4.8	.	-4.0	.
CCc1nc(C)ccc1OCC(=O)N1CCc2c([nH]c3ccccc23)C1c1ccccn1 (configuration not stated)	.	2.7	-6.8%	3.9	21.7
O=C(CSc1ncn(-c2ccccc2)n1)NCc1ccccc1	-23.0	3.2	-8.1%	-3.4	-1.8
CN(C)c1ccc(C2C3CCCc4ccccc4C3=NN2C)cc1 (configuration not stated)	.	0.0	6.6%	-4.5	.
CCOC(=O)C(NC(=O)CC)C(O)c1cccc([N+](=O)[O-])c1 (configuration not stated)	-31.3	1.5	-6.4%	0.9	-3.4
CCCNc1ccc(S(=O)(=O)N(CC)CC)cn1	-18.9	-1.7	0.7%	4.0	3.8
Cc1ccccc1N1CCN(S(=O)(=O)CC23CCC(CC2=O)C3(C)C)CC1 (configuration not stated)	.	2.1	.	-3.0	.
C=CCNc1ncnc2c1[nH]c1ccccc12	-8.5	0.8	-15.6%	-2.2	7.3
O=C(O)CCN1C(=O)c2ccc(NC(=O)c3cccs3)cc2C1=O	3.3	1.0	-10.2%	7.0	-2.0
CS(=O)(=O)N(CC(=O)NCCC1=CCCCC1)c1ccc2c(c1)OCO2	10.9	-0.4	3.0%	-3.1	4.8
Cc1nc2cc(NC(=O)c3ccc(N4C(=O)CCC4=O)cc3)ccc2s1	.	0.2	2.0%	0.5	16.8
CC(Sc1nc(-c2ccco2)nc2c1c(=O)n(C)c(=O)n2C)C(=O)O (configuration not stated)	.	-0.8	-2.1%	-3.8	.
Cc1ncc(CN2CCCC(CCC(=O)NCc3ccc(F)c(F)c3)C2)s1 (configuration not stated)	.	0.2	-1.6%	0.9	-0.2
COCCN(C(=O)Cn1nnc2ccccc21)C(C(=O)NC1CCCCC1)c1ccc(OC)cc1OC (configuration not stated)	-18.4	-0.8	7.3%	-0.6	0.0
Cc1oc2c(C)c(O)ccc2c(=O)c1-c1cnn(-c2ccccc2)c1	3.7	2.7	-1.2%	-5.2	13.7
COc1c(F)c(F)c(C(=O)Nc2ccccc2N2CCN(C(C)=O)CC2)c(F)c1F	-18.4	-13.2	0.1%	-9.8	6.9
New compounds follow
SMILES	YopH inh	RecA intein inh	Mtb H37Rv	Mtb betalactam	Arbovirus anti	others
C=CCNc1nc(Nc2ccc([N+](=O)[O-])cc2)nc(N2CCCC2)n1	.	0.3	52.9%	62.3	-18.3
Cc1cc(Oc2nc3c(C)cccn3c(=O)c2/C=C(\C#N)S(=O)(=O)c2ccc(Cl)cc2)ccc1Cl	-13.8	-28.9	6.0%	2.5	-37.4
COc1ccc(Cl)cc1N1C(=O)C2CCCN2C1c1ccccc1F (configuration not stated)	-3.6	0.3	11.5%	-0.7	4.2	Arbovirus anti repeat=0.3
O=C(Nc1nnc(SCc2ccc(F)cc2)s1)C1CC(=O)N(Cc2ccccc2)C1 (configuration not stated)	-28.9	-0.6	0.3%	3.0	9.5
C/C(=C\c1ccco1)C1C(C#N)=C(N)Oc2n[nH]c(-c3ccc(C)cc3)c21 (configuration not stated)	-2.8	21.0	-4.6%	-1.6	2.4
CC1(c2nnc(-c3ccncc3)o2)CC(c2c(Cl)cccc2Cl)=NO1 (configuration not stated)	.	1.5	-13.4%	-10.8	.
O=C1NC(c2ccncc2)C(C(=O)c2cccs2)C(O)(C(F)(F)F)N1 (configuration not stated)	-26.6	-0.5	-2.6%	1.3	4.0
COc1cc(C(=O)N2CCCN(C)CC2)cc(OC)c1C	.	0.4	.	-9.9	.
COc1ccc(N(CC(=O)N/N=C/c2cccs2)S(=O)(=O)c2ccccc2)cc1	.	3.8	5.9%	-1.0	-11.2
COC(=O)c1cccc(NC(=O)c2cccnc2)c1	-14.5	-0.3	-1.1%	0.5	5.8
CC(=O)Nc1nc(-c2ccc3c(c2)CCN3C(=O)C2CC2)c(C)s1	.	-0.9	.	-3.5	.
COc1ccc(NC2=C3CC(C)CC=C3N(c3ccc(OC)cc3)C2=O)cc1 (configuration not stated)	.	-0.4	73.7%	-3.2	-0.8
Cc1noc(C)c1C(=O)NC(C)C12CC3CC(CC(C3)C1)C2 (configuration not stated)	.	1.3	-4.0%	-2.3	8.6
Cc1ccc(S(=O)(=O)N2CCC3(CC2)OCCN3S(=O)(=O)c2cccs2)cc1	.	4.9	.	1.9	.
Cc1ccc(S(=O)(=O)N(C)c2c(C)ccc(S(N)(=O)=O)c2C)cc1	.	0.5	-3.2%	0.1	-6.5
Cc1ccc(Cl)cc1N1CCN(C(c2ccc(C#N)cc2)c2nnnn2C2CCCC2)CC1 (configuration not stated)	-55.2	.	-0.6%	-3.3	-6.3
Cc1ccc(CNC(=O)C2CC=CCC2C(=O)O)cc1 (configuration not stated)	.	-1.5	.	3.6	.
CN(C(=O)COC(=O)/C=C/c1ccc(S(=O)(=O)N2CCc3ccccc32)cc1)C1CCS(=O)(=O)C1 (configuration not stated)	.	-1.3	-8.0%	-0.5	-4.0
CCOc1cc2[nH]c(=S)n(Cc3ccc(C(=O)NCCOC)cc3)c(=O)c2cc1OCC	-12.3	8.8	-1.5%	?	-13.9
C/C(=N\NC(=O)Cc1c(C)[nH][nH]c1=O)c1cccc(Br)c1	.	13.5	3.6%	3.3	.
COc1ccc(/C=N/Nc2nncn2N)cc1Br	.	-1.6	.	95.3	.
COc1cc2c(C(=O)NCc3ccc4c(c3)OCO4)cn(C)c(=O)c2cc1OC	-12.5	1.4	-9.8%	0.0	1.1
Cc1cc(C(=O)O)ccc1-n1c(C)ccc1C	-38.6	.	.	-7.2	4.4
COc1ccccc1NC(=O)CSc1ncnc2c1oc1ccccc12	-24.3	.	3.8%	-27.3	6.9
Nc1nc(NCCCN2CCOCC2)nc(Nc2ccc(Cl)cc2)c1[N+](=O)[O-]	.	1.6	11.0%	-5.7	.
O=C(OCC(=O)N(C1CCCCC1)C1CCCCC1)c1cnccn1	-6.6	0.1	.	6.4	4.5
COCCN(C(=S)Nc1ccc(C)cc1C)C(C)c1cccs1 (configuration not stated)	.	4.4	0.4%	-6.8	1.2
CC(C)(C)c1cc[n+](-c2nc([O-])sc2C=O)cc1	-8.7	.	-2.8%	5.2	-0.6
